High-throughput results from PubChem.
eIF4H inh: inhibitors of RNA binding by human eIF4H | Q15056 | eIF4H fluorescence polarization binding assay | hit rate 0.94% among 290,000 | inhibition, % at 35 µM;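 active = 50% or more with normal probe brightness, or confirmed in later tests; about a fifth of its hits are not listed in these tables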;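 note: calls also rest on retests at 20 µM and on dose response follow-up; 0% = protein and probe with vehicle and 100% = probe without protein; strong numbers were not always called active; many hits fall short of the cut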
UUG fidelity: alters start codon recognition fidelity in yeast | S. cerevisiae UUG-firefly luciferase reporter, luminescence/redox ratio | activity score, % at 18.7 µM | AID 602363 | hit rate 0.13% among 350,000;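 active = replicate mean at a twofold rise or more, about +100% in these data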;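 note: firefly luciferase made from a UUG start codon reports start codon fidelity; reporter light over untreated wells divided by growth signal over untreated wells; some hits fall short of that in this replicate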
Rce1 inh: blocks yeast Ras-converting enzyme; yeast membranes, quenched prenylated peptide cleavage fluorescence; Q03530; calls only; AID 2563; hit rate 0.27% among 290,000;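 active = fall in fluorescence gain of 50% or more versus controls, with final raw signal at or below 3038400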;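 note: plate controls were neutral control wells for no effect and wells lacking membranes for full effect; tested at 10 µM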
Target sequence (Q03530 whole entry, looked up): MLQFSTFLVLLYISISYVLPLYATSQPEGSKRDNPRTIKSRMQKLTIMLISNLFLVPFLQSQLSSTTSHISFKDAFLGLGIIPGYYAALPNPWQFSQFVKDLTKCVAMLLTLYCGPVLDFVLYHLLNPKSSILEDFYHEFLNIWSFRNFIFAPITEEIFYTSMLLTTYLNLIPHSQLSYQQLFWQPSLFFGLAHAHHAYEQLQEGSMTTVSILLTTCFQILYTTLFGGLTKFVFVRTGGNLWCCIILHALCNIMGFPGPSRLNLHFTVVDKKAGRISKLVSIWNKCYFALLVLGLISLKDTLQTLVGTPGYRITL
CSC inhib: cancer stem cell inhibition; AID 2717; hit rate 1.1% among 300,000; inhibition, % at 7.5 µM; cancer stem cell-like cells viability, luminescence;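 active = mean at 75% or more and at least half the replicates too; tested in HMLE shEcad cells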;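 note: 0% = median of negative and 100% = median of positive control wells; the first replicate is given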
HIV Env fusion: HIV envelope-mediated fusion inhibition. HeLa-JRFL Env/CEM21 cell fusion, luciferase. inhibition, % at 12.3 µM. hit rate 1.1% among 360,000. AID 651610;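 active = mean replicate inhibition score of at least 50 and every replicate individually at or above 50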;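 note: 0% = plate neutral controls and 100% = maraviroc near 300 nM; one replicate is shown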
PABP FP inh: blocks human PABP binding to poly(A) RNA; P11940; fluorescence polarization; inhibition, % at 35 µM; hit rate 1% among 290,000; AID 2014;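 active = 50% or more with normal probe brightness, or confirmed in later tests; about a fifth of its hits are not listed in these tables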;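 note: calls also rest on retests at 20 µM and on dose response follow-up; controls were probe without protein and protein plus probe with vehicle; some compounds called inactive have numbers as strong as hits; many hits fall short of the cut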
Target sequence (P11940 whole entry, looked up): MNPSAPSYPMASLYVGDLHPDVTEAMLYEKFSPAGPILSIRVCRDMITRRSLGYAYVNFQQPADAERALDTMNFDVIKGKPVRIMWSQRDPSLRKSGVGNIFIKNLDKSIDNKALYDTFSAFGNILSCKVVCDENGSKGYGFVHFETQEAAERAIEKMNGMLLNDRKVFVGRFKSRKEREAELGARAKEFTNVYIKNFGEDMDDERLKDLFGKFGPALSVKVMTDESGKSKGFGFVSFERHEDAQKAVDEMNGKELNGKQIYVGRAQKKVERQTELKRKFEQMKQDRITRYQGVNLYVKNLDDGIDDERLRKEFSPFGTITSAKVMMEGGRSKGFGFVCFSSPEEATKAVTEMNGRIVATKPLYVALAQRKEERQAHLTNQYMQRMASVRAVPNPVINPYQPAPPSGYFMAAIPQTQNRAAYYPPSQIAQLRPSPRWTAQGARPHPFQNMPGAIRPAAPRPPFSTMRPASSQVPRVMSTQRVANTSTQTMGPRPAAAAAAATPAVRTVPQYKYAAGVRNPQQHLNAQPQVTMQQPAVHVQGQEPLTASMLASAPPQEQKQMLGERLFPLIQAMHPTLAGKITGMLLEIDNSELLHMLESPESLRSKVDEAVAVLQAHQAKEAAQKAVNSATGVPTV
MT1-MMP act inh: inhibitors of human MT1-MMP activation. P50281. HT1080 RFP-PRO-GFP cells, GFP/RFP ratio fluorescence, overnight; percent of plate control window, DMSO zero. GFP/RFP ratio change, % at 20 µM. hit rate 0.061% among 360,000. AID 651647;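 active = GFP/RFP ratio change of at least 30% with cell ATP level not reduced by more than half and red fluorescence within 50% of control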; note: strong numbers were not always called active
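Compound: 20 µM single dose, 1% DMSO / System: HT1080 RFP-PRO-GFP cells / Controls: DMSO and RFP-L50D-GFP cell wells / Read-out basis: GFP/RFP fluorescence ratio / Schedule: overnight compound exposure at 37 °C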
MT1-MMP act inh RFP: recorded beside MT1-MMP act inh, whose call it bears; RFP signal change, %; measured here: RFP expression control read;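 0 = vehicle wells; hits needed this value within 50% of zero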
Numbers without * were called inactive; i = inactive; . = not tested or not shown; & = joins results of further samples; [ ] = remark or other dose. Not all compounds are listed; the hit share may differ from the screen's.

SMILES	eIF4H inh	UUG fidelity	Rce1 inh	CSC inhib	HIV Env fusion	PABP FP inh	MT1-MMP act inh	MT1-MMP act inh RFP
O=C(c1ccc(C#Cc2ccccc2)o1)N1CCN(c2ccccn2)CC1	24	.	i	-16	-55	0	8	5
COc1ccc(C(=O)OCC(=O)c2ccc[nH]2)cc1	.	-23	.	-9	-31	.	-2	0
CC(Oc1ccccc1F)C(=O)NNC(=O)c1cccc(S(=O)(=O)N2CCN(C)CC2)c1 (stereo not given)	.	-21	.	-10	.	.	0	-2
COc1ccc(CCCC(=O)NCCc2ccccc2)cc1	-4	3	i	.	-16	6	-2	1
c1ccc2c(c1)C(=NCC1CCCO1)NC2=NCC1CCCO1 (stereo not given)	-4	-5	i	-13	.	-14	5	3
CC(=O)c1ccc(OCC(=O)Nc2c(C)nn(-c3ccccc3)c2C)cc1	.	-8	i	-10	.	.	1	0
Cc1ccc(CNS(=O)(=O)NCc2ccccc2)cc1	0	-9	i	-11	-51	-6	3	0
CC(C)(C)C1CCC(C(=O)Nc2ccccc2N2CCOCC2)CC1 (stereo not given)	.	9	.	7	17	.	-5	-5
Cc1cc2[nH]c(=O)c(=O)[nH]c2cc1S(=O)(=O)N1CCN(c2ccccc2)CC1	0	-9	i	-3	11	-4	2	2
COC(=O)c1sc(S(=O)(=O)N2CCN(CCO)CC2)c(C(=O)OC)c1C	-2	9	i	-1	5	1	-1	2
O=C1CSC(=S)N1	-6	-8	i	2	-9	20	-2	3
CCOC(=O)CCC(=O)Nc1ccc([N+](=O)[O-])cc1C	-8	.	i	-5	-9	-5	3	3
COC(=O)COc1ccc2c(=O)c(-c3ccccc3)coc2c1	-7	-10	i	0	-4	7	5	2
COc1ccc(NC(=O)CSc2nnc(C3CC3)n2N)cc1	-14	-10	i	.	-28	-10	8	1
NS(=O)(=O)c1cccc(NC(=O)CC23CC4CC(C2)CC(CC(=O)Nc2cccc(S(N)(=O)=O)c2)(C4)C3)c1	-2	-4	i	-7	-25	-6	-5	-1
Cc1onc(-c2c(Cl)cccc2Cl)c1C(=O)OCC(=O)c1ccccc1	-9	-10	i	16	1	11	-1	-7
CC(C)NC(=O)N(C)C[C@H]1Oc2ccc(NC(=O)NC3CCCCC3)cc2C(=O)N([C@H](C)CO)C[C@@H]1C	.	1&-3	.	11	-13	.	4	5
O=Cc1ccc(OCC(=O)NC(=O)NC2CCCCC2)cc1	-3	10	i	-8	-158	7	8	-1
Cn1c(SCc2ccc([N+](=O)[O-])cc2)nnc1-c1ccncc1	6	-10	i	-5	11	-12	0	5
Cc1ccc(C2(C)NC(=O)N(CC(=O)NC(=O)NCCC(C)C)C2=O)cc1 (stereo not given)	-14	-5	i	-10	6	-14	0	-1
Cc1cc(C)cc(NC(=O)C2CCCN2C(=O)NC2CCCCC2)c1 (stereo not given)	4	.	i	5	-6	-13	1	2
CC(CC(=O)Nc1ccccc1)NCCCN1CCCC1=O (stereo not given)	6	.	i	-5	-17	0	3	0
C/C(=N\Nc1cccc(C(=O)O)c1)c1cc2ccccc2o1	8	13	.	15	-30	-8	-12	-7
Cc1cccc(C)c1NC(=S)N1CCC(c2ccccc2)C1 (stereo not given)	3	.	i	1	0	-2	0	1
C[C@H]1CN([C@@H](C)CO)S(=O)(=O)c2ccc(Br)cc2O[C@@H]1CN(C)C(=O)Cc1cccnc1	.	-4&-8	.	.	-74[16.7 µM]	.	2	4

Rewritten field by field: four of the compounds above
> Cc1cc(C)cc(NC(=O)C2CCCN2C(=O)NC2CCCCC2)c1 (stereo not given)
  eIF4H inh: 4
  UUG fidelity: .
  Rce1 inh: i
  CSC inhib: 5
  HIV Env fusion: -6
  PABP FP inh: -13
  MT1-MMP act inh: 1
  MT1-MMP act inh RFP: 2

> CC(CC(=O)Nc1ccccc1)NCCCN1CCCC1=O (stereo not given)
  eIF4H inh: 6
  UUG fidelity: .
  Rce1 inh: i
  CSC inhib: -5
  HIV Env fusion: -17
  PABP FP inh: 0
  MT1-MMP act inh: 3
  MT1-MMP act inh RFP: 0

> C/C(=N\Nc1cccc(C(=O)O)c1)c1cc2ccccc2o1
  eIF4H inh: 8
  UUG fidelity: 13
  Rce1 inh: .
  CSC inhib: 15
  HIV Env fusion: -30
  PABP FP inh: -8
  MT1-MMP act inh: -12
  MT1-MMP act inh RFP: -7

> Cc1cccc(C)c1NC(=S)N1CCC(c2ccccc2)C1 (stereo not given)
  eIF4H inh: 3
  UUG fidelity: .
  Rce1 inh: i
  CSC inhib: 1
  HIV Env fusion: 0
  PABP FP inh: -2
  MT1-MMP act inh: 0
  MT1-MMP act inh RFP: 1

Some of the entries so far, with each value named:
> COC(=O)COc1ccc2c(=O)c(-c3ccccc3)coc2c1
  eIF4H inh: -7; UUG fidelity: -10; Rce1 inh: i; CSC inhib: 0; HIV Env fusion: -4; PABP FP inh: 7; MT1-MMP act inh: 5; MT1-MMP act inh RFP: 2

> CC(Oc1ccccc1F)C(=O)NNC(=O)c1cccc(S(=O)(=O)N2CCN(C)CC2)c1 (stereo not given)
  eIF4H inh: .; UUG fidelity: -21; Rce1 inh: .; CSC inhib: -10; HIV Env fusion: .; PABP FP inh: .; MT1-MMP act inh: 0; MT1-MMP act inh RFP: -2

> CC(C)(C)C1CCC(C(=O)Nc2ccccc2N2CCOCC2)CC1 (stereo not given)
  eIF4H inh: .; UUG fidelity: 9; Rce1 inh: .; CSC inhib: 7; HIV Env fusion: 17; PABP FP inh: .; MT1-MMP act inh: -5; MT1-MMP act inh RFP: -5

> COc1ccc(C(=O)OCC(=O)c2ccc[nH]2)cc1
  eIF4H inh: .; UUG fidelity: -23; Rce1 inh: .; CSC inhib: -9; HIV Env fusion: -31; PABP FP inh: .; MT1-MMP act inh: -2; MT1-MMP act inh RFP: 0

More entries.
SMILES	eIF4H inh	UUG fidelity	Rce1 inh	CSC inhib	HIV Env fusion	PABP FP inh	MT1-MMP act inh	MT1-MMP act inh RFP
CC(=O)c1cccc(NC(=S)NC(=O)c2ccccc2Cl)c1	-9	-13	i	-2	-16	-2	-1	-1
COc1cccc(CNC(=O)c2nnn(CC(=O)Nc3ccc4c(c3)OCO4)c2N)c1	-4	.	i	-6	2	-7	0	0
CC(=O)c1ccc(N2CCN(C(=O)CCS(=O)(=O)c3ccc(C)cc3)CC2)cc1	0	8	.	28	.	-8	6	0
Cc1nn(Cc2ccc(Cl)cc2Cl)c(C)c1NC(=O)c1nc2n(n1)C(C(F)F)CC(C)N2 (stereo not given)	2	-9	.	.	.	5	3	3
COCCSc1ccccc1C(=O)Nc1ccc2c(c1)OCO2	11	.	i	.	-4	3	1	4
COc1ccc(N2C(=O)C3CCCN3C2c2ccc(C)cc2)cc1Cl (stereo not given)	-2	-10	i	-2	-9	-9	4	-1
CCc1nc2c(OCc3cccc(OC)c3)cccn2c1N(C)C(=O)c1ccccc1F	.	-6	.	.	12	.	1	-5
COc1ccc(/C=N/NC(=O)C2c3ccccc3Oc3ccccc32)c(OC)c1	-8	-8	i	15	-5	-5	2	7
CC1CCN(CCc2nc3cc(NC(=O)COc4ccccc4)ccc3n2C)CC1	5	-14	i	1	-12	-10	5	1
Cc1c(C)c2ccc(OCC(=O)N3CCN(C(=O)C4COc5ccccc5O4)CC3)cc2oc1=O (stereo not given)	-11	-17	i	0	-6	6	3	-4
O=C(N1CCOCC1)N1CCN(c2nc(-c3ccccc3)cs2)CC1	-9	-12	i	.	-26	1	16	0
COc1ccc(CC(=O)Nc2oc(-c3ccccc3)c(-c3ccccc3)c2C#N)cc1OC	2	-3	i	10	.	2	-4	-11
CC(C)c1cc(C(=O)Nc2ccc3c(c2)OCO3)no1	9	-52	i	1	-174	-10	2	3
O=C(CN1C(=O)c2ccccc2C1=O)OCC(=O)N1CCc2ccccc2C1	-20	-2	i	-9	.	2	3	5
O=c1[nH]c2cc3c(cc2cc1CN(Cc1ccc2c(c1)OCO2)Cc1nnnn1CC1CCCO1)OCO3 (stereo not given)	-8	-12	i	9	4	0	-3	-2
O=S(=O)(Nc1ccccc1Cl)c1ccc(NS(=O)(=O)c2cccs2)cc1	-3	10	i	-3	-3	1	0	1
Cc1cc(C)n2nc(SCC(=O)N/N=C/c3cccc(Br)c3)nc2n1	-4	.	i	3	.	4	1	-2
Cc1ccc(S(=O)(=O)Cc2sc3ccccc3[n+]2C)cc1	-8	.	i	-1	.	25	7	2
Fc1ccc(/C=C/c2nnc(-c3cccs3)o2)cc1	-9	.	.	-1	-46	-22	1	-2
C/C(=N\NC(=O)c1cccc(S(=O)(=O)N2CCCC2)c1)c1ccncc1	.	-16	.	-7	.	.	6	3
CC(COc1ccccc1)OC(=O)Nc1ccccc1 (stereo not given)	.	-2	.	.	-10	.	1	-1
Cc1cccc(S(=O)(=O)Nc2ccncc2)c1	-9	-22	i	-6	-26	14	0	2
COc1cccc(CNC(=O)c2c[nH]n3c(=O)c(Cl)c(C)nc23)c1	-3	4	i	-2	-15	2	-1	1
Cc1ccc(-n2c(O)c(/C=N/c3ncn[nH]3)c3ccccc3c2=O)cc1	-4	.	i	16	4	1	-4	-1
Cc1cccc(N2CCN(S(=O)(=O)c3ccc(S(=O)(=O)N4CCCC4)cc3)CC2)c1C	-6	5	i	.	-20	-7	7	1

Continued.
SMILES	eIF4H inh	UUG fidelity	Rce1 inh	CSC inhib	HIV Env fusion	PABP FP inh	MT1-MMP act inh	MT1-MMP act inh RFP
COc1cc(NC(=O)N2CCNC2=O)cc(C(=O)Nc2cccc(C(F)(F)F)c2)c1	0	-17	i	60	-282	4	10	-6
CCOC(=O)CSc1nnc(-c2ccc(S(=O)(=O)N3CCC(C)CC3)cc2)o1	6	-8	.	-5	-9	9	0	1
O=C(C[n+]1ccc2c(c1)nnn2-c1ccccc1)c1ccc(Cl)cc1	26	13	i	1	-6	13	-9	-1
Nc1ccccc1N1CCOCC1	1	.	i	14	21	-8	-1	1
COc1c(/C=N/NC(=O)c2ccncc2)c(CCN(C)C(C)=O)cc2c1OCO2	1	-2	i	-3	5	-6	-1	4
CCOC(=O)Cc1csc(NC(=O)c2cc3c(s2)CCCC3)n1	-5	-18	i	7	-110	-7	-38	-33
c1cncc(-c2nc(-c3ccc4c(c3)OCCO4)cs2)c1	-1	-26	i	-1	-130	6	-2	-1
CC1(C)C2CCC13CS(=O)(=O)NC3C2 (stereo not given)	-1	-10	i	.	.	-12	2	5
COc1ccc2oc(=O)c(C(=O)Oc3ccc(NC(C)=O)cc3)cc2c1	23	.	i	-7	-4	11	4	1
C[C@@H]1CCCCCCCCCCC1=O	-5	3	i	-6	-1	-1	2	2
Cc1cccc(NC(=O)CSc2nnc(C3CC3)n2CC2CCCO2)c1 (stereo not given)	-10	-7	i	-5	-1	8	4	3
Cc1ccc(-c2nc(N)n(S(C)(=O)=O)n2)cc1	1	-15	i	.	.	7	4	4
CCOC(=O)C1CCN(C(=O)c2ccc3c(c2)OCO3)CC1	-5	-6	i	-17	4	-11	-2	5
N=c1oc2cc(O)ccc2cc1C(=O)Nc1ccc(Cl)cc1	9	-13	i	52	-83	18	-39	-17
O=C(CN1CCCCC1)Nc1nc(-c2ccc(Cl)cc2)cs1	-16	-16	i	20	-2	6	5	-6
CCOC(=O)[C@H]1[C@H]2COc3ccc(Cl)cc3[C@@H]2N2C(=O)CN(Cc3ccc(C)cc3)C(=O)[C@@]12C	.	-6	.	-1	-1	.	-1	2
CC(C)c1ccc(-n2ccnc2SCC(=O)O)cc1	1	-9	i	4	5	-3	5	4
CCCN1CCC2(CC1)NC(C(=O)O)Cc1c2[nH]c2ccccc12 (stereo not given)	8	-10	i	-10	.	-4	-6	1
O=C(COc1cccc(C(F)(F)F)c1)N1CCN(c2ccccc2O)CC1	-2	.	i	-10	17	6	0	-2
CCN(C(=O)c1ccc(Br)o1)C1CCS(=O)(=O)C1 (stereo not given)	.	-9	i	-8	-5	.	0	2
OC(COC(c1ccccc1)c1ccccc1)CN1CCN(c2ccccn2)CC1 (stereo not given)	1	-11	i	13	-4	2	-1	-1
